MgrA-DNA mod: alters Staphylococcus aureus MgrA binding to DNA | fluorescence polarization | inhibition, %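 (about 10 µg/mL by stock and volumes)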 | 84,000 compounds, 0.13% hits | AID 602314;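 active = above 50% in either of two replicates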;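 note: 0% = protein plus DNA without compound and 100% = DNA alone without protein; higher means less MgrA bound to DNA so lower polarization; one replicate is shown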
Sa helicase inh: blocks Staphylococcus aureus DNA helicase; purified S. aureus helicase, fluorescence unwinding assay; about half of the hits fall short of the stated cut; inhibition, %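 (tested at about 80 µM)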; 120,000 compounds, 0.05% hits; AID 485395;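 active = both duplicates at 50% or more, or one of them with a favoured structure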;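 note: 0% = mean of negative control wells and 100% = mean of positive control wells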
Active calls of the source: *; x = not tested or not shown; & = joins results of further samples.

compound | MgrA-DNA mod | Sa helicase inh
CCn1c(SCC(=O)OCc2c(C(=O)OC)sc(N)c2C(=O)OC)nnc1-c1cccs1 | x | -3
Cc1ccc2nc(-c3cc(-c4ccccc4)no3)cn2c1 | -2.6 | x
CCOC(=O)CSc1nc(N)c2c3c(sc2n1)CCCC3 | x | 8&15
CCCCc1cc2ccccc2c(OCCN(C)C)n1 | 0.9 | x
Cc1oc(C(O)C(O)C(O)CO)cc1C(=O)O (centres undefined) | x | -17
N#CC1=C(O)CCCn2c1nc1ccccc1c2=O | x | 11
CC(C)(C)OC(=O)CSc1nc2ccccc2c(=O)[nH]1 | x | -7
O=C(NCCC1=CCCCC1)c1ccc(Cn2c(=S)[nH]c3cc4c(cc3c2=O)OCO4)cc1 | 1.4 | 11
Cc1c(/C=C2/C(=O)Nc3ccc(Cl)cc32)cc(C#N)n1C | x | -73
O=c1oc(-c2ccccc2)nc2sc3c(c12)CCCCC3 | -1.8 | x
O=C(O)c1c2c(nc3ccccc13)Cc1ccccc1-2 | x | -5
O=C(NCc1ccc(F)cc1)c1ccc(O)cc1 | x | -17
C=CCNC(=O)Cn1c(=S)[nH]c2ncccc2c1=O | 2.5 | 9
O=C1CSC(=S)N1/N=C/c1cccnc1 | 3.8 | x
NS(=O)(=O)c1ccc2c(c1)CCN2 | x | 8
CC(=O)Nc1[nH]c2ccccc2c1O | x | -1
O=C(NCCCn1ccnc1)c1ccc(CN2CCc3ccccc3C2)cc1 | -2.6 | 2
CN1C(=O)/C(=C\C=C\c2ccccc2)SC1=S | x | -17
CC1(C)OC(C(=O)NC2CCCCC2)C(C(=O)NC2CCCCC2)O1 (centres undefined) | 2.6 | 19
Cc1cn(CCC(=O)O)c(=O)[nH]c1=O | -4.2 | -3
COC(=O)c1c[nH]n2c(NC3CCCCC3)c(-c3cccc(Br)c3)nc12 | 1.3 | 16
CCc1cc2c(=O)n(Cc3ccco3)c(SCC(=O)Nc3ccc(F)cc3F)nc2s1 | x | -12
CCc1cc(=O)oc2c(C)c3c(cc12)CN(Cc1ccco1)CO3 | x | -23
COc1ccccc1NS(=O)(=O)c1ccccc1 | x | 3

Single entries from the list:
Reading of CCc1cc(=O)oc2c(C)c3c(cc12)CN(Cc1ccco1)CO3 under Sa helicase inh: -23
Reading of Cc1cn(CCC(=O)O)c(=O)[nH]c1=O under MgrA-DNA mod: -4.2
Reading of COC(=O)c1c[nH]n2c(NC3CCCCC3)c(-c3cccc(Br)c3)nc12 under MgrA-DNA mod: 1.3
Reading of COc1ccccc1NS(=O)(=O)c1ccccc1 under Sa helicase inh: 3

Additional entries follow.
compound | MgrA-DNA mod | Sa helicase inh
COCC(C)NCc1cc(F)ccc1F (centres undefined) | -4.5 | 8
CC(=O)OCCn1nc(-c2ccccc2)c2ccccc2c1=O | x | 12
CCOC(=O)n1cc(C(=O)c2ccccc2O)cn1 | x | -18
O=C(COC(=O)c1cc2ccccc2cc1O)NCc1ccccc1 | 0.8 | -23
COC(=O)CNC(=O)C1CCC(c2ccc(Cl)cc2)CC1 (centres undefined) | -0.2 | x
CCc1cc2c(NCCCC(=O)O)ncnc2s1 | x | 10
C=CCNC(=O)c1cc(=O)c2ccccc2o1 | 1.0 | 9
Cc1cc(=O)[nH]c(S)c1C#N | x | -2
COc1ccc(/C=C2/SC(=O)N(CCC(=O)Nc3ccccc3)C2=O)cc1OC | -0.6 | x
Cc1csc(NC(=O)C(F)(F)F)c1C#N | 1.7 | x
COc1ccc2[nH]c(=S)[nH]c2c1 | 0.3 | x
C=CCc1c(C)c2ccc(OC(C)=O)cc2oc1=O | x | -5
CCOC(CCn1c(SCc2cccc(F)c2)nc2ccccc2c1=O)OCC | -0.1 | -7
CCOC(=O)C1CCCN(C(=O)CSc2ccc(Cl)cc2)C1 (centres undefined) | -2.1 | -2
Cc1ccc(C(=O)Oc2cccc3[nH]ccc23)cc1 | -2.7 | x
CCc1ccc(NC(=O)c2cnn3c(C(F)F)cc(C)nc23)cc1 | 3.1 | 14

Arranged by heavy-atom count (low to high): some entries from above.
compound | MgrA-DNA mod | Sa helicase inh
COc1ccc2[nH]c(=S)[nH]c2c1 | 0.3 | x
Cc1csc(NC(=O)C(F)(F)F)c1C#N | 1.7 | x
Cc1ccc(C(=O)Oc2cccc3[nH]ccc23)cc1 | -2.7 | x
CCOC(=O)C1CCCN(C(=O)CSc2ccc(Cl)cc2)C1 (centres undefined) | -2.1 | -2
CCOC(CCn1c(SCc2cccc(F)c2)nc2ccccc2c1=O)OCC | -0.1 | -7

Later entries.
compound | MgrA-DNA mod | Sa helicase inh
N#CCn1cc(/C=C2\C(=O)NC(=O)N(c3cccc(F)c3)C2=O)c2ccccc21 | 22 | -3
CCN1C(=O)NC(c2ccccc2)C1=O (centres undefined) | -0.8 | x
COc1cc([N+](=O)[O-])c(OC)cc1SCC(=O)NN | -1.8 | x
CC(=O)OC1CCC2C3CCc4cc(O)ccc4C3CCC12C (centres undefined) | -0.8 | x
C/C(=N/NC(=O)c1sc(NS(=O)(=O)c2ccc(C)cc2)nc1C)c1sc(N)nc1C | x | 19
O=C1CC2(CCCC2)C(=O)N1c1ccc(S(=O)(=O)N2CCSCC2)cc1Cl | -3.2 | x
CCOC(=O)c1cc(-c2csc(Nc3ccccc3Cl)n2)on1 | -1.1 | x
CNc1c(NC(=O)CC(=O)OC)c(=O)oc2ccccc12 | x | -26

The list goes on:
| mol | MgrA-DNA mod | Sa helicase inh |
| --- | --- | --- |
| O=C(Nc1ccccc1C(=O)NCCN1CCOCC1)C1=CSCCO1 | x | 9 |
| Cc1cc(C)c2c(=O)n(-c3ccccc3)[nH]c2n1 | -1.8 | -1&1 |
| CC1CCc2cc(F)ccc2N1C(=O)CN1C(=O)c2ccccc2C1=O (centres undefined) | 1.5 | 12 |
| Cc1ccc(O)c(C(=O)c2cnc3[nH][nH]c(=O)c3c2)c1 | x | 0 |
| COc1cc(-c2noc(CCCC(=O)Nc3ccccc3C(F)(F)F)n2)cc(OC)c1OC | x | -20 |
| COCCN(Cc1ccccc1)C(=O)C1CC(=O)N(c2cc(C)ccc2OC)C1 (centres undefined) | x | 21 |
| N#Cc1cc2c(=O)n3ccccc3nc2n(C2CCCC2)c1=N | 0.8 | -9 |
| O=C(Nc1cc(C(F)(F)F)ccc1N1CCOCC1)c1cccs1 | -1.6 | x |
| O=C(Nc1nnc(-c2ccccc2)o1)c1ccccc1 | x | 15 |
| CCCc1cc2c(=O)c(-c3ccc(C(=O)OCC)o3)c(C(=O)OCC)oc2cc1OC(C)=O | 0.7 | x |
| CC1(C)CC(=O)C2=C(C1)OC(c1cccs1)C(C#N)=C2N (centres undefined) | 99* | 12 |
| Cc1cnc(C(=O)NCC23CC4CC(CC(C4)C2)C3)cn1 | x | 10 |
| Clc1ccc(-c2noc(C3CCNCC3)n2)cc1 | -2.4 | x |
| O=c1oc2c(Cl)cc(Cl)cc2cc1-c1nnc(-c2ccc([N+](=O)[O-])cc2)o1 | 0.5 | x |
| COC(=O)c1cc2c(=O)n3ccccc3nc2n(CCCO)c1=N | x | 12 |
| CCn1c(O)c(C=Nc2cccc(OC)c2)c(=O)[nH]c1=S | 4.2 | 1 |
| O=C(Cc1ccccc1)Nc1ccc(Cc2ccncc2)cc1 | x | 20 |
| Cc1cc(C)c(C#N)c(SCC(=O)c2ccccc2)n1 | 0.8 | -16 |
| Cc1cn2c(=O)c(C(=O)NCC3CCCC(CNC(=O)c4cnc5sc(C)cn5c4=O)C3)cnc2s1 (centres undefined) | x | -4 |
| CCOC(=O)CNC(=O)c1cc([N+](=O)[O-])ccc1Oc1ccc(OC)cc1 | 0.9 | x |
| O=C(/C=C1/Sc2ccccc2N(Cc2ccccc2F)C1=O)N1CCCC1 | x | -4 |
| CC(CS(=O)(=O)c1ccc2c(c1)NC(=O)C(C)S2)C(=O)N1CCc2ccccc21 (centres undefined) | x | 3 |
| Nc1ccc(-c2cc(C(=O)O)c3ccccc3n2)cc1 | x | 1 |
| FC(F)(F)c1cc(-c2csnn2)cc(C(F)(F)F)c1 | 4.0 | x |
| N=c1oc2ccccc2cc1-c1nc(-c2cc3cc(Br)ccc3oc2=O)cs1 | -0.5 | x |
| O=C(C1CCCN(S(=O)(=O)c2ccccc2)C1)N1CCCc2ccccc21 (centres undefined) | -0.3 | 0 |
| O=C1c2[nH]nc(-c3ccccc3O)c2C(c2ccccc2)N1Cc1ccco1 (centres undefined) | 1.8 | 16 |
| CN1CC2(C)CN(C(=O)c3ccccc3Cl)CC(C)(C1)C2 | -0.2 | -3 |
| CSc1nnc(SC)n1/N=C(/N)c1cccc(C(F)(F)F)c1 | -2.3 | x |
| S=C(NC(Cc1ccccc1)c1ccccc1)NC1CC2C=CC1C2 (centres undefined) | -0.7 | x |
| Cc1nnc(NC(=O)C2CCN(S(=O)(=O)c3ccc4c(c3)CCC4)CC2)o1 | x | -6 |
| CC1CCCC(NC(=O)c2ccc(C#N)cc2)C1C (centres undefined) | -2.5 | -7 |
| CC(C)(C)C(=O)NCCSc1nnnn1-c1ccccc1 | 0.1 | 10 |
| Cc1sc2ncn(CC(=O)NCc3ccccn3)c(=O)c2c1S(=O)(=O)N1CCN(c2ncccn2)CC1 | x | 23 |
| CN1CCN(c2ccc(/C=C3\Sc4ccccc4C3=O)cc2[N+](=O)[O-])CC1 | -0.4 | x |
| CC(C)NC(=O)NC(=O)CN1c2cccc3cccc(c23)S1(=O)=O | x | -2 |
| CC1CC(C)CN(C(=O)CN2C(=O)c3ccccc3S2(=O)=O)C1 (centres undefined) | -1.1 | -20 |
| O=C(NCCc1ccncc1)c1ccc([N+](=O)[O-])cc1 | -1.2 | x |
| O=C(Nc1ccc2c(c1)OCC(=O)N2Cc1ccccc1F)NC1CCCCC1 | -0.2 | -3 |
| N#CCNC(=O)COc1ccc(Cl)cc1 | 2.8 | -4 |
| COC(=O)c1ccsc1NC(=O)c1ccsc1NC(=O)c1cccnc1 | 1.2 | 9 |
| CCc1nc2cc(Cl)c(Cl)cc2[nH]1 | 0.2 | 15 |
| COc1cc2nc(C3CCC3)n(NC(=O)c3ccco3)c(=O)c2cc1OC | 0.9 | -1 |
| Cc1cc(Cl)cc2c1C(=O)/C(=C\c1cccnc1)S2 | 0.3 | x |
| CCOc1ccc2sc(C=NC(C)CC)c(O)c2c1 (centres undefined) | 3.0 | -5 |
| N#Cc1cccn1Cc1ccccc1N | -1.8 | x |
| CSc1cccc(NC(=O)c2c(-c3ccccc3Cl)noc2C)c1 | -2.9 | x |
| O=C(CCc1nnc2ccc(N3CCC4(CC3)OCCO4)nn12)Nc1ccc2c(c1)OCO2 | x | 11 |
| O=C(N=Nc1c(O)[nH]c2ccccc12)c1cccc(Br)c1 | x | -35 |
| Cc1ccc(C2CCN(C(=S)Nc3ccccc3C)C2)cc1 (centres undefined) | -2.0 | -1 |

Further entries
| mol | MgrA-DNA mod | Sa helicase inh |
| --- | --- | --- |
| O=C(/C=N/O)Nc1ccccc1Cl | 2.5 | x |
| Cc1cccc(N2CC(C(=O)NC3CCCCCC3)CC2=O)c1C (centres undefined) | x | -9 |
| CCN(CC)S(=O)(=O)c1ccc(-n2nnc(-c3ccc(C)cc3)n2)nc1 | x | 7 |
| Nc1cccc(-c2nc3ccccc3o2)c1 | -1.1 | 2 |
| O=S(=O)(Oc1cc(Cl)cc(Cl)c1)c1ccc(Cl)c(Cl)c1 | -1.3 | x |
| CNS(=O)(=O)c1ccc(C(=O)NCC(=O)O)cc1 | x | 3 |
| Cc1ccnc(N=C2c3ccccc3CN2c2cc(C)ccn2)c1 | -3.0 | x |
| COc1ccccc1N1CCN(S(=O)(=O)c2cc(C)c(F)c(C)c2)CC1 | -2.5 | x |
| CCCCCS(=O)(=O)N1C(=O)CSC1=Nc1ccccc1 | x | 5 |
| O=C(Cn1cncn1)N/N=C/c1ccccc1OC(F)F | x | -5 |
| O=C(NC(=O)N1CCCCC1)c1ccc(-c2csnn2)cc1 | -0.5 | x |
| O=c1oc2cc(O)ccc2c2c1CCCCC2 | x | -8 |
| COc1cc(-c2nnc(CN3C(=O)C4CC=CCC4C3=O)o2)cc(OC)c1OC (centres undefined) | x | 9 |
| CC1CCN(C(c2ccc(F)cc2)c2sc3ncnn3c2O)CC1 (centres undefined) | x | 23 |
| O=C1CSCN1c1ccc(Cl)cc1 | -2.1 | x |
| O=C(c1ccco1)N1CCN(Cc2ccc3c(c2)OCO3)CC1 | -1.8 | 7 |
| CC(=O)Nc1ccc(C(=O)N2CCOCC2)cc1 | -0.7 | -3 |
| N#Cc1ccc(-c2c(-n3cccc3)oc(-c3cccs3)c2C#N)cc1 | -0.2 | x |
| CN(C)S(=O)(=O)N1CCc2ccccc2C1 | x | -16 |
| CC(C)CC(=O)Nc1ccc(Cl)cn1 | -0.5 | 6 |
| CCOC(=O)c1cc(-c2ccccc2)n(CCCN2CCOCC2)c1C | -0.5 | x |
| O=C(/C=C/c1ccc(F)cc1)Nc1ccon1 | x | -23 |
| O=C(NCCO)C12CC3CC(CC(C3)C1)C2 | 3.6 | -12 |
| O=C(Cn1cc(SCc2ccccc2)c2ccccc21)N1CCCC1 | 0.9 | -8 |
| Cc1cccn2c(=O)nc(SCC(=O)Nc3ccccc3)nc12 | x | 0 |
| COc1ccc(-c2cc(C)no2)cc1S(=O)(=O)N1CC(=O)Nc2ccccc21 | x | 1 |
| Cc1ccc(C(C(=O)NC2CCCCC2)N(C)c2ccccc2)cc1 (centres undefined) | 0.9 | 14 |
| Cn1c2c(c(=O)n(C)c1=O)C(c1ccc(Cl)cc1Cl)C(C#N)=C(N)N2 (centres undefined) | 2.7 | 7 |
| Fc1ccccc1NCc1nnc2n1CCCCC2 | x | 5 |
| Cc1ccc(CCNC(=O)C2(NS(=O)(=O)c3cccc4cccnc34)CCCCC2)cc1 | 1.3 | 13 |
| CCc1cccc2sc(NN)nc12 | x | 20 |
| COC(=O)c1ccccc1-c1ccc(/C=C(\C#N)C(=O)NCc2ccco2)o1 | x | 7 |
| CC1CC(CC(=O)Nc2nc(-c3ccccc3)cs2)C(=O)O1 (centres undefined) | x | -2 |
| CCCCc1ccc(NC(=O)N=S2CCN(C(=O)c3ccc(Cl)cc3)CC2)cc1 | -0.8 | x |

High-throughput results as filed in PubChem BioAssay.

Not all compounds are listed (hit frequency here may not be typical).
